HCMV NEC inh – cytomegalovirus nuclear egress complex inhibition; HTRF UL50-UL53 interaction, normalized percent inhibition; 190,000 tested, 0.15% active; inhibition, % (concentration not given with the values);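 active = both replicates at 50% or more, plus weaker picks with an unusually low signal ratio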;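 note: stock transfer was 100 nL into about 20 µL; 0% = negative control wells and 100% = wells with untagged competitor protein; inactives centre near -12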
GIV-Gai inh – blocks GIV peptide binding to rat Galpha-i3. P08753. Galpha-i3/FITC-GIV peptide fluorescence polarization, 90 min; stronger effect = lower value; scaled: aluminum fluoride 0%, vehicle 100%. percent of control (FP), % (test concentration not listed). 210,000 tested, 0.42% active;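 active = replicate mean at 85% of control or lower, very high polarization wells dropped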;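 note: wells of about 15 µL received 100 nL stock; the first replicate is given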
Target sequence (P08753 whole entry, looked up): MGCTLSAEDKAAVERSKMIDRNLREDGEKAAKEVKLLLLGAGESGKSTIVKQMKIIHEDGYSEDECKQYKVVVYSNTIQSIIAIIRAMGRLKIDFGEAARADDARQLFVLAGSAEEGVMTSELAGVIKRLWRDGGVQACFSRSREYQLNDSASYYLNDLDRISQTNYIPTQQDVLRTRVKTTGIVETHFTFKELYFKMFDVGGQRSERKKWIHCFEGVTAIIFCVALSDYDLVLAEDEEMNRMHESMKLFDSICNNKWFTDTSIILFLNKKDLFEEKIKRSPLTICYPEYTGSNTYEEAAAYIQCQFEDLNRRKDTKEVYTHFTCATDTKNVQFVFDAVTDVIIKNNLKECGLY
Sa growth inh – blocks Staphylococcus aureus growth; 170,000 tested, 0.53% active; S. aureus RN4220 growth, OD600, 20 h, 42 °C; stronger effect = lower value; relative growth, % (test concentration not listed);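 active = growth at 42 °C up to 50% and 20 or more points under that at 30 °C, or under 10% at both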;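 note: 300 nL library stock went into each well; scaled to the means of positive and negative controls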
Sa growth inh second temp – also measured in Sa growth inh; calls as there; relative growth, %; measured here: growth at 30 °C;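 optical density after 20 h as mean of two plates; 100% = untreated growth and lower means inhibition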
* marks the source's active call; other numbers are inactive results; x = not tested or not shown.

1. O=C(CN1C(=O)C2(SCC(=O)N2c2cccc(F)c2)c2ccccc21)NCc1ccccc1Cl (stereo not given)
2. CCc1ccccc1NC(=O)CN1C(=O)COc2ccc(S(=O)(=O)Nc3ccccc3)cc21
3. CCOc1ccc(Nc2cc(C(=O)NCC(OC)OC)c3ccccc3n2)cc1
4. COc1ccccc1N=Cc1c(O)n(C)c(=O)c2ccccc12
5. Cc1cc(C)nc(NS(=O)(=O)c2ccc(-n3c(Cn4ncc5ccccc5c4=O)n[nH]c3=S)cc2)n1
6. Cc1nn(CC(=O)NC2CC2)c(=O)c2c(-n3cccc3)n(-c3ccccc3)nc12
7. N#CCC(=O)Nc1nccs1
8. O=C(Nc1ccccc1)Oc1cccc(Cl)c1
Assay by compound	1	2	3	4	5	6	7	8
HCMV NEC inh	x	x	-3	17	-7	10	-22	0
GIV-Gai inh	100	107	106	x	111	102	93	x
Sa growth inh	95	103	91	108	99	x	89	108
Sa growth inh second temp	92	96	94	102	104	x	90	95

9. Cc1cccc(C)c1-n1ncc(C(=O)NCCN2CCOCC2)c1C1CCN(C(=O)OC(C)(C)C)CC1
10. CCOc1ccccc1N(CC)C(=O)Cn1ncc2c([nH]c3ccccc32)c1=O
11. N#CC1(C(=O)O)CN(CCc2ccc(Cl)cc2)CN(CCc2ccc(Cl)cc2)C1
12. CC(C)c1ccc(NC(=O)Cn2c(=O)n(Cc3nc(-c4ccccc4)no3)c(=O)c3cc4c(cc32)OCO4)cc1
13. C#CCn1c(=NC(=O)C2=COCCO2)sc2ccccc21
14. O=C(OCc1ccc(F)cc1)c1ccc(-n2cnnn2)cc1
15. CC[n+]1c(/C=C/Nc2ccccc2)sc2ccccc21
16. FC(F)(F)c1cccc(-c2nc(-c3ccncc3)no2)c1
Assay by compound	9	10	11	12	13	14	15	16
HCMV NEC inh	x	x	-32	x	-9	-13	-63	-9
GIV-Gai inh	102	108	100	102	109	x	x	101
Sa growth inh	80	116	93	92	110	88	103	x
Sa growth inh second temp	85	96	96	95	83	87	64	x

17. Cc1cc(C)n(CCCNC(=O)CSc2nnc(-c3c[nH]c4ccccc34)o2)n1
18. COC(=O)c1cc(N)ccc1N1CCOCC1
19. COc1cccc(C(c2sc3nc(-c4ccco4)nn3c2O)N2CCN(C)CC2)c1 (stereo not given)
20. Cc1ccc(Nc2cc(N3CCCCC3)c3nonc3c2[N+](=O)[O-])cc1Cl
21. O=C(Nc1cccc(Cl)c1)c1noc2c1CCC2
22. CSc1nnc(-c2ccncc2)n1Cc1ccccc1
23. Nc1oc(-c2ccccc2F)cc1C(=O)c1ccccc1
24. COc1cc2c(cc1OC)C(C)N(C(=O)c1noc3c1COc1ccc(C)cc1-3)CC2 (stereo not given)
Assay by compound	17	18	19	20	21	22	23	24
HCMV NEC inh	-35	-4	x	-16	3	-16	-33	x
GIV-Gai inh	x	109	97	105	102	x	x	105
Sa growth inh	64	84	148	x	112	106	86	95
Sa growth inh second temp	49	87	87	x	95	90	71	87

In another format: two of the compounds above.
cpd	molecule	HCMV NEC inh	GIV-Gai inh	Sa growth inh	Sa growth inh second temp
3	CCOc1ccc(Nc2cc(C(=O)NCC(OC)OC)c3ccccc3n2)cc1	-3	106	91	94
4	COc1ccccc1N=Cc1c(O)n(C)c(=O)c2ccccc12	17	x	108	102

The list continues:
25. N#CC(C#N)=C(O)c1c(Cl)cccc1Cl
26. CC(C)(C)OC(=O)NC1(C(=O)O)CC1
27. Cc1nc2ccc(S(=O)(=O)NCC(=O)N3CCC(C)CC3)cc2s1
28. Cc1ccc(Cl)cc1N1CCN(C(=O)CCc2nnc3n(C)c(=O)c4ccccc4n23)CC1
29. S=c1nc2c(cnn2-c2ccccc2)c(Nc2ccccc2)[nH]1
30. CCOc1nc(C)ccc1-c1noc(-c2ccccc2Cl)n1
31. CCOc1ccc(N(C)S(=O)(=O)c2cc(-c3cc(C)no3)ccc2OC)cc1
32. O=C(CSc1ccc(Cl)cc1)Nc1cccc(Cl)c1
Assay by compound	25	26	27	28	29	30	31	32
HCMV NEC inh	-14	-3	-5	-16	-42	1	x	-1
GIV-Gai inh	101	98	116	98	107	109	103	x
Sa growth inh	90	96	x	99	64	101	93	91
Sa growth inh second temp	84	77	x	83	94	95	91	86

Compound profiles, as listed above. Order of screens: HCMV NEC inh, GIV-Gai inh, Sa growth inh, Sa growth inh second temp
COc1cccc(C(c2sc3nc(-c4ccco4)nn3c2O)N2CCN(C)CC2)c1 (stereo not given) is entered as x, 97, 148, 87
CCOc1ccc(Nc2cc(C(=O)NCC(OC)OC)c3ccccc3n2)cc1 is entered as -3, 106, 91, 94
O=C(Nc1ccccc1)Oc1cccc(Cl)c1 is entered as 0, x, 108, 95
Cc1nc2ccc(S(=O)(=O)NCC(=O)N3CCC(C)CC3)cc2s1 is entered as -5, 116, x, x
O=C(CSc1ccc(Cl)cc1)Nc1cccc(Cl)c1 is entered as -1, x, 91, 86

Remaining list, next part.
33. Cc1ccc2cc3cc(C(=O)NCC4(c5ccccc5)CCCC4)oc3nc2c1
34. CCOc1c(Cl)cnn(-c2ccccc2)c1=O
35. COc1ccc2c(c1)O/C(=C\c1cccc(OC(=O)N3CCOCC3)c1)C2=O
36. c1cc2c(cc1-c1nnc(NC3CCCCC3)o1)OCO2
37. C=CCn1c(SCc2ccccc2C#N)nc2scc(-c3cccs3)c2c1=O
38. Cc1cc(C)cc(N2C(=O)N(CC(=O)N3CCOc4ccc(C)cc43)C3CS(=O)(=O)CC32)c1 (stereo not given)
39. Cc1cccc(CN2CCN(CC(=O)O)C2=O)c1
40. O=C(N/N=C/c1ccco1)c1cccc(NC(=O)c2cccc(Cl)c2)c1
Assay by compound	33	34	35	36	37	38	39	40
HCMV NEC inh	x	-39	-50	-5	-26	10	11	-18
GIV-Gai inh	99	103	103	x	x	106	99	101
Sa growth inh	95	98	97	74	71	96	108	107
Sa growth inh second temp	94	105	90	83	98	96	107	98

41. CCc1ccc(N2CCn3c2nc2c3c(=O)n(Cc3c(F)cccc3Cl)c(=O)n2C)cc1
42. Cc1onc(-c2c(Cl)cccc2Cl)c1C(=O)NC(=S)N1CCOCC1
43. O=C(COC(=O)/C=C/c1ccco1)Nc1ccccc1
44. COC(CNc1ncnc2c1c(-c1ccccc1)cn2-c1ccc(C)cc1)OC
45. O=c1oc2c3c(ccc2c2c1CCCC2)OCN(c1ccc(F)cc1)C3
46. CCSc1nnc(SCc2cc(=O)oc3cc(OC)ccc23)s1
47. CCCn1c(=O)n(-c2cc(Cl)c(OC)cc2OC)c(=O)c2c3c(sc21)CN(C(C)=O)CC3
48. CCOc1ccccc1C1Nc2ccccc2NC2=C1C(=O)CC(c1ccc(OC)c(OC)c1)C2 (stereo not given)
Assay by compound	41	42	43	44	45	46	47	48
HCMV NEC inh	x	-26	-18	x	-52	-26	-19	-18
GIV-Gai inh	103	97	x	103	106	x	102	97
Sa growth inh	119	73	112	112	85	90	105	x
Sa growth inh second temp	99	30	98	96	71	98	61	x

49. O=C(COc1ccc(Br)cc1)Nc1ccccc1N1C(=O)c2ccccc2C1=O
50. Fc1ccccc1Cn1c(CSC2=NCCN2)nc2ccccc21
51. O=C(Cn1c(=O)c2cccn2c2ccc(F)cc21)NCCc1c[nH]c2ccccc12
52. O=C(Nc1ccc(F)c(F)c1)c1cc(S(=O)(=O)NCc2ccc3c(c2)OCO3)ccc1F
53. COc1ccc(C(=N/O)/C(=N/O)c2ccc(OC)cc2)cc1
54. Cc1c(C(=O)OC2CCCCCC2)[nH]c2c1C(=O)CC(c1ccccc1Cl)C2 (stereo not given)
55. CC1CCCC(C)N1C(=O)COC(=O)c1cccs1 (stereo not given)
56. Nc1nc(C(=O)N2CCOCC2)nn1S(=O)(=O)c1ccc(Cl)cc1
Assay by compound	49	50	51	52	53	54	55	56
HCMV NEC inh	-15	-3	-4	x	-18	-6	-34	x
GIV-Gai inh	x	94	102	104	101	104	x	98
Sa growth inh	101	49	x	106	85	101	159	103
Sa growth inh second temp	83	47	x	101	97	88	82	93

57. CC(C)Cn1c(=O)c2sccc2n2c(SCC(=O)NC3CCCC3)nnc12
58. N#Cc1cc(C(=O)c2cccs2)c2nc3ccccc3n2c1N
59. Cc1ccc(C(=O)Nc2cnc3cc(C)ccn3c2=O)cc1
60. CCOc1ccc(-c2noc(N3CCC(C(=O)N4CCN(C)CC4)CC3)n2)cc1OC
61. Cc1ccc(-n2cc(-c3ccccc3)c3c(NN4CCOCC4)ncnc32)cc1Cl
62. NC(=O)C1CCN(C(=O)CN(Cc2ccccc2)S(=O)(=O)c2ccccc2)CC1
63. COc1ccc(CCNC(=O)CCCCn2c(=O)c3ccccc3n(Cc3cccc(C)c3)c2=O)cc1OC
64. O=C(NCc1ccccn1)c1cc(Sc2ccc(F)cc2)nc2ccccc12
Assay by compound	57	58	59	60	61	62	63	64
HCMV NEC inh	-18	-19	-64	-6	x	4	-18	x
GIV-Gai inh	106	x	99	101	101	x	99	101
Sa growth inh	x	89	x	x	106	113	97	166
Sa growth inh second temp	x	70	x	x	80	93	85	96

65. Cc1cccc(NC(=O)C2CCN(c3nnc(C)c4c(C)n(-c5ccccc5)nc34)CC2)c1C
66. Cc1ccc(-n2ncc(C(=O)N3CCN(c4ccccn4)CC3)c2C2CCN(C(=O)OC(C)(C)C)CC2)cc1
67. CC(C)(C)C(=O)n1cc2c(n1)-c1cc(Cl)ccc1SC2
68. C=CCn1c(CCSCc2ccc(OC)cc2)n[nH]c1=S
69. CCN(CC)CCCOc1cccc2ccccc12
70. COc1ccccc1NNC(=O)C1CCCCC1
71. CCCCN1C(=O)/C(=C2\SC(N3CCOCC3)=NC2=O)c2ccccc21
72. Cc1cccc2nc(Cn3c(=O)n(CCC(=O)NCc4ccco4)c(=O)c4ccccc43)cc(=O)n12
Assay by compound	65	66	67	68	69	70	71	72
HCMV NEC inh	x	x	x	-24	-10	-31	-30	x
GIV-Gai inh	99	109	107	103	x	104	106	102
Sa growth inh	86	97	92	93	112	91	88	135
Sa growth inh second temp	90	89	88	69	89	85	82	87

73. COc1ccc(/C=N/NC(=O)CSc2nc3ccccc3o2)cc1OC
74. Cn1ccnc1SCC(=O)c1ccc(NS(C)(=O)=O)cc1
75. CC(=O)Nc1ccc(S(=O)(=O)Nc2ccc3c(c2)CCCN3C(=O)c2ccccc2)cc1
76. CC(C)NCc1nnc(-c2ccccc2Cl)o1
77. Cc1ccc(CNC(=O)CCNS(=O)(=O)c2cccc3nsnc23)cc1
78. CC(=O)Oc1ccccc1C(=O)N1CC(C)OC(C)C1 (stereo not given)
79. Cc1nn(CC(=O)NC2CCCC2)c(=O)c2noc(C)c12
80. O=S(=O)(Cc1ccc(Cl)cc1)CC(O)COc1ccc(F)cc1 (stereo not given)
81. COC(=O)c1ccc(NC(=O)C(C)N2Cc3ccccc3C2=O)cc1 (stereo not given)
Assay by compound	73	74	75	76	77	78	79	80	81
HCMV NEC inh	-21	-10	20	-3	-24	-7	-28	4	x
GIV-Gai inh	102	x	97	x	101	104	99	101	104
Sa growth inh	88	98	x	104	102	106	x	89	91
Sa growth inh second temp	91	98	x	100	93	77	x	84	83

A few values from the results shown.
Result for compound 75 under HCMV NEC inh: 20
Result for compound 80 under HCMV NEC inh: 4

Assay outcomes deposited in PubChem BioAssay by ICCB-Longwood Screening Facility, Harvard Medical School.
